NPYLR7 agonist = mosquito NPYLR7 agonism; HEK293T NPYLR7/Galpha15, GCaMP6s calcium fluorescence; activation, % at 10 µM; 270,000 compounds, 0.15% hits; AID 1259423; in the data active means activation above about 40%;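 further: 0% = vehicle and 100% = reference agonist at the receptor; some compounds past the cut are filed as inactive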
NPYLR7 agonist max-min = recorded beside NPYLR7 agonist, whose call it bears; activation, %; measured here: Max-Min RFU normalised activation; some inactives read as strong as hits;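 span of the calcium signal over five minutes; 0% = vehicle and 100% = native peptide agonist; compound fluorescence can raise it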
Active calls of the source: *; & = joins results of further samples. Not all compounds are listed, so the mix of outcomes need not match the whole.

Each structure is followed by: NPYLR7 agonist	NPYLR7 agonist max-min
COc1ccc(CCNC(=O)CC(c2ccc3c(c2)OCO3)c2cn(C)c3ccccc23)cc1OC (stereo not drawn)
  6.8	18.9
O=C(CCc1ccc2c(c1)OCO2)N1CCN(Cc2ccco2)C(CCO)C1 (stereo not drawn)
  4.1	-5.3
CCN(CCc1nc2ccccc2[nH]1)C(=O)c1ccc2c(c1)OCO2
  1.4	0.2
CN(CC(=O)Nc1ccc(Cl)cc1)C(=O)c1cccc(C#N)c1
  -2.1	-4.4
O=C(CSc1nc(=O)n(CC2CCCO2)c2c1CCC2)NCc1ccc(F)cc1 (stereo not drawn)
  -3.0	-9.3
Cc1ccc(-c2nnn(CC(O)CN3CCc4ccccc4C3)n2)cc1 (stereo not drawn)
  -5.4	-8.0
CCOC(=O)c1nc2cc(Cl)c(Cl)cc2nc1N1CCN(C(=O)CCCC(=O)OC)CC1
  4.8	-0.3
O=C(NC(C(=O)N1CCCCC1)C1CCN(C(=O)Cc2ccccc2)CC1)c1ccc(F)cc1 (stereo not drawn)
  9.5	4.5
CCC(C)N(Cc1cccc(OS(=O)(=O)c2cccc(C(F)(F)F)c2)c1)C(=O)c1ccccc1Br (stereo not drawn)
  12.3	18.8
COc1ccc(Cl)cc1C1=N/C(=C\C(Cl)=C\c2ccccc2)C(=O)O1
  -0.8	0.9

Additional compounds.
Each structure is followed by: NPYLR7 agonist	NPYLR7 agonist max-min
CCCCCc1c(O)nc(SCC(=O)O)[nH]c1=O
  2.4	-1.6
CC(NC(=O)c1cc(=O)[nH][nH]1)c1ccc2c(c1)CCCC2 (stereo not drawn)
  -0.4	0.8
Cc1ccc2nc(C)ccc2c1
  5.8	8.4
CCN1CCN(C(=O)c2ccccc2N2CCC(NC(=O)C3CCCC3)CC2)CC1
  8.2	25.5
COCCN(Cc1cnn(C)c1)C(=O)CC1CNCCO1 (stereo not drawn)
  12.8	13.7
CCNc1ncc(C(=O)O)s1
  -5.8	-8.1
Cc1cccc(CNC(=O)C(C2CCCC2)N2CCN(C(=O)c3ccccc3Cl)CC2)c1 (stereo not drawn)
  -4.2	1.2
Cc1ccc(S(=O)(=O)Oc2cc(C)c3cnn(C(C)C4CC4)c3n2)cc1 (stereo not drawn)
  3.6	9.7
CCN(CC)C(=O)CSc1nc2c([nH]c3ccccc32)c(=O)n1-c1ccccc1OC
  1.0	0.5
CN1CCN(C2CCOC2=O)Cc2ccccc21 (stereo not drawn)
  -0.1	-4.5

Carrying on:
Each structure is followed by: NPYLR7 agonist	NPYLR7 agonist max-min
CCOC(C)c1ccc(-c2cncc(C(N)=O)c2)cc1 (stereo not drawn)
  14.9	13.6
COc1cccc(C2NC(=O)N(C)C3=C2C(=O)N(C2CC2)C3)c1 (stereo not drawn)
  -3.3	0.2
CC(C)(C)Cc1[nH]cnc1-c1ccccc1
  -3.8&4.3	-10.9&1.7
COCCCn1c(C(=O)Nc2cccc(C(C)=O)c2)cc2c(=O)n(C)c(=O)n(C)c21
  -1.5	-2.8
CCC(C)NS(=O)(=O)c1ccc(C(=O)Nc2ncccc2O)cc1 (stereo not drawn)
  -1.3	-5.6
CCn1c(C)cc(O)c(C(c2ccncc2)N2CCN(c3ccc(F)cc3)CC2)c1=O (stereo not drawn)
  3.9	-0.4
CCc1nc(C)c(C(=O)NCc2cccnc2Oc2ccc(F)cc2F)o1
  -0.7	-1.6
CC1(C(=O)NS(=O)(=O)c2cccs2)CCN1C(=O)C1(c2ccccc2)CCCC1 (stereo not drawn)
  5.6	4.8
CCc1nc2n(n1)C(=O)C(C(c1ccc(Cl)cc1)N1CCC(C(=O)OC)CC1)S2 (stereo not drawn)
  0.2	3.8
C=CCn1c(C)cc(C(=O)COC(=O)C=Cc2c(C)nn(Cc3ccccc3Cl)c2C)c1C
  -4.9	-8.7

More entries:
Each structure is followed by: NPYLR7 agonist	NPYLR7 agonist max-min
C=C(Br)Cn1cnc2cc(C)c(C)cc21
  1.5	8.1
CCCCNC(=O)c1oc2ccc(Br)cc2c1C
  12.8	6.3
Cc1ccccc1-c1cc2nc(NCc3ccccc3)n(C)c(=O)c2s1
  5.8	0.7
O=C(c1ccc([N+](=O)[O-])c(O)c1)N1CCN(c2nccs2)CC1
  -0.9	8.7
O=C(c1ccc2nc(C3CCCCC3)oc2c1)N1CCCN(Cc2cccs2)CC1
  7.4	3.8
CC(NC(=O)C1CCN(S(=O)(=O)c2ccc(F)cc2)CC1)c1ccc(Br)cc1 (stereo not drawn)
  11.0	7.1
COc1ccccc1-c1c(C)nn2c(-n3nc(C)cc3C)cc(C)nc12
  4.3	8.4
CC1(C)CC(=O)C(C=Nc2ccccc2N)=C(O)C1
  9.2	1.5
Cc1ccccc1-c1nn(-c2ccc(F)cc2F)cc1CN1CCN(CCC(N)=O)CC1
  -17.6	-14.3
Cc1ccc(-n2ncc3c(=O)[nH]c(-n4nc(C)cc4NC(=O)c4ccc5ccccc5c4)nc32)cc1
  -3.8	-8.9

Additional records
Each structure is followed by: NPYLR7 agonist	NPYLR7 agonist max-min
Cc1ccc(C2(O)CCN(C(=O)c3cnc(C(C)C)[nH]c3=O)CC2)nc1
  6.1	3.7
COCC(=O)N1CCN(C(c2ccccc2)c2ccc(Cl)cc2)CC1 (stereo not drawn)
  5.2	3.7
COc1cc(NC(N)=Nc2nc(CSc3ccc(C)cc3)cc(=O)[nH]2)cc(OC)c1
  -5.2	-14.5
NC(=O)c1nc(-c2ccccc2)nc2c1[nH]c(=O)n2-c1ccccc1F
  -6.6	-11.2
O=S(=O)(NCCc1csc2nc(-c3ccccc3)nn12)c1ccc(Cl)cc1
  -13.8	-9.5
C=CC[C@@H]1CC=C[C@@H](CC=C)N1C(=O)c1cnn2c1CCCC2
  26.7	3.4
CC(C)c1nnsc1CO
  -13.9	-19.1
O=C(c1cncn1-c1ccccc1)N1CCN(S(=O)(=O)c2ccc(F)c(Cl)c2)CC1
  7.9	5.5
Cc1ccc(S(=O)(=O)NC(C)C2C3CC4CC(C3)CC2C4)c(C)c1 (stereo not drawn)
  -0.5	-3.1
COc1cccc(C(=O)N(Cc2csc(COc3cccc(Cl)c3)n2)C(C)C)c1
  -4.4	-5.7

(continued)
Each structure is followed by: NPYLR7 agonist	NPYLR7 agonist max-min
COc1ccc(S(=O)(=O)NCC2CCCN(C(=O)C=C(C)C)C2)cc1 (stereo not drawn)
  4.4	-1.1
CCn1cc(CN2Cc3cc(C)ccc3OC(c3ccsc3)C2)c(C)n1 (stereo not drawn)
  1.2	-0.9
O=c1nc2c3ccccc3ncn2[nH]1
  3.5	3.6
S=c1[nH]nc(C2C3CCCCC32)n1-c1cc(Cl)cc(Cl)c1 (stereo not drawn)
  -11.7	-21.7
Cc1ccc(-n2ncc(Oc3ccccc3F)c(Nc3cccc(C(=O)NCCN4CCOCC4)c3)c2=O)cc1
  11.9	9.6
CCc1nc(C)c(C(=O)N(CC2COc3ccccc3O2)C(C)C)o1 (stereo not drawn)
  -3.1	14.6
Brc1ccc2[nH]cc(C=Nc3ccc(N4CCOCC4)cc3)c2c1
  -2.6	-4.4
CC(C)Oc1cccc(F)c1-c1nccc(N2CCCC(O)C2)n1 (stereo not drawn)
  7.5	5.2
CC(C)COCC(O)CN(Cc1cccc(Cl)c1)CC1CC(c2ccccc2Cl)=NO1 (stereo not drawn)
  -2.2	3.6
CC1(Cc2cc(Cl)ccc2C(F)(F)F)C(=O)Nc2ccc(S(=O)(=O)NC3CCCCC3)cc21 (stereo not drawn)
  5.0	1.9

The list continues.
Compound,NPYLR7 agonist,NPYLR7 agonist max-min
CCCCn1c(C2CC(=O)N(c3ccc(F)cc3)C2)nc2ccccc21 (stereo not drawn),1.1,-4.3
COc1ccc(Cl)c2sc(N(Cc3cccnc3)C(=O)CSc3ccccc3)nc12,9.2,6.2
S=c1[nH]nc(Cc2cccs2)n1C1CC1,32.0,43.2
CC(=O)N1CN(C(C)=O)C(O)C1O (stereo not drawn),-13.3,-21.3
O=C(CSc1nnc(-c2ccccc2F)o1)NC1CCCC1,-4.0,-7.7
CC(=O)Nc1ccc(C(=O)NCCCSc2nnc(C)s2)cn1,17.0,5.5
Cc1noc(C(C)C)c1C(=O)NS(=O)(=O)N1CCc2ccccc21,0.5,-1.2
CC(C)CN(CC(=O)N(CCc1c[nH]c2ccccc12)Cc1ccc(Cl)cc1)C(=O)CC(C)(C)C,-1.1,5.1

Later entries.
Compound,NPYLR7 agonist,NPYLR7 agonist max-min
COCC(c1ccccn1)N(C)Cc1ncc[nH]1 (stereo not drawn),0.9,3.9
CCn1ccc(C(=O)NCc2cccnc2Oc2ccccc2F)cc1=O,1.3,13.8
CCOC(=O)c1c(CC(C)C)csc1N,-6.8,-14.8
Cc1cccc(-c2nc(CN3C(=O)NC4(CCSC4)C3=O)no2)c1 (stereo not drawn),4.2,2.2
CCOCCn1c(=O)c2c(nc3n(C(C)CC)c(C)cn23)n(C)c1=O (stereo not drawn),-9.3,-10.6
COc1ccc(-c2nc(SCc3cc(C)on3)n[nH]2)cc1,0.9,-0.2
COCCNC(=O)C(NC(=O)CC(C)C)C1CCN(C(=O)c2cccs2)CC1 (stereo not drawn),13.0,13.0
C=C(C)CN(CC)Cc1nc(-c2cnccn2)no1,-1.8,-7.5

(more compounds)
Compound,NPYLR7 agonist,NPYLR7 agonist max-min
Cc1ccc(N=Cc2nc(-c3cccc4ccccc34)oc2O)c(C)c1,4.6,2.1
COc1ccc(-c2nc3cc(C)ccn3c2NC(=O)c2ccc(Br)cc2)cc1,-3.6,3.0
Cc1ccc(S(=O)(=O)N2CCC(NC(=O)C(C)Oc3ccc(Cl)cc3Cl)CC2)cc1 (stereo not drawn),-8.6,-8.4
CCc1cn[nH]c1C1CCN(Cc2cnc(NCC3CCCO3)nc2)CC1 (stereo not drawn),-1.1,-4.3
CCOc1c(CN(C)c2ncnc3c2CCNC3)cccc1OC,-1.0,-3.1
CC1Cc2nc(SCC(=O)NCC3CCCO3)n(-c3ccccc3)c(=O)c2S1 (stereo not drawn),1.1,-4.0
Cc1csc(NC(=O)C(=O)N2CCOC3(CNCCOC3)C2)n1 (stereo not drawn),-2.7,-9.3
Cc1oc(-c2cccc(C(F)(F)F)c2)nc1CN1CCCC(C(N)=O)C1 (stereo not drawn),22.2,13.3

Single values from above.
Under NPYLR7 agonist max-min, COc1ccc(-c2nc3cc(C)ccn3c2NC(=O)c2ccc(Br)cc2)cc1 is listed with 3.0
Under NPYLR7 agonist, CC1Cc2nc(SCC(=O)NCC3CCCO3)n(-c3ccccc3)c(=O)c2S1 (stereo not drawn) is listed with 1.1
Under NPYLR7 agonist max-min, Cc1oc(-c2cccc(C(F)(F)F)c2)nc1CN1CCCC(C(N)=O)C1 (stereo not drawn) is listed with 13.3

More entries follow:
Compound,NPYLR7 agonist,NPYLR7 agonist max-min
O=C(C1CCCCC1)N(CCN1CCOCC1)c1nc2ccc(F)cc2s1,3.9,1.8
COCCN=c1scc(-c2ccc(Cl)cc2Cl)n1N=Cc1ccc2c(c1)OCO2,4.3,0.7
CN(C)S(=O)(=O)c1cc(N)ccc1Cl,2.2,3.2
O=C(Nc1ccc(F)cc1)c1ccc(N2CCCC2c2ccccn2)nc1 (stereo not drawn),5.5,4.9
COCC(O)CNC(=O)Nc1cc(OC)c(C(=O)OC)cc1Cl (stereo not drawn),7.6,15.5
Clc1ccc(C(c2ccccc2Cl)C(Cl)Cl)cc1 (stereo not drawn),4.5&6.1,-8.2&-4.9
COc1ccc(C2CCCN2C(=O)Nc2cccnc2)cc1 (stereo not drawn),8.4,6.4
Cc1cccc(-c2cnc(-c3ccncc3)nc2C2CCN(C(=O)c3ccc(F)c(F)c3)CC2)c1,15.4,6.6

Full records, looked up by structure. Screens in order: NPYLR7 agonist | NPYLR7 agonist max-min
Results for CCC(C)N(Cc1cccc(OS(=O)(=O)c2cccc(C(F)(F)F)c2)c1)C(=O)c1ccccc1Br (stereo not drawn) : 12.3 | 18.8
Results for C=C(C)CN(CC)Cc1nc(-c2cnccn2)no1 : -1.8 | -7.5
Results for Cc1ccc(S(=O)(=O)N2CCC(NC(=O)C(C)Oc3ccc(Cl)cc3Cl)CC2)cc1 (stereo not drawn) : -8.6 | -8.4
Results for CCc1nc(C)c(C(=O)N(CC2COc3ccccc3O2)C(C)C)o1 (stereo not drawn) : -3.1 | 14.6
Results for O=C(CCc1ccc2c(c1)OCO2)N1CCN(Cc2ccco2)C(CCO)C1 (stereo not drawn) : 4.1 | -5.3

Following part.
Compound,NPYLR7 agonist,NPYLR7 agonist max-min
CN(Cc1ccccc1O)C(=O)c1cc(C2CC2)n(C(C)(C)C)n1,-0.3,-2.7
O=C(Nc1ccccc1-n1cnnn1)N1CCN(c2cnccn2)CC1,3.3,3.0
COc1cccc(CC(=O)NCc2cccc(SC)c2)c1,13.6,9.0
COc1ccccc1N1CCN(Cc2cc(=O)c(OCC(=O)NC(C)(C)C)co2)CC1,-2.1,50.6
Cc1ccc(-n2ccc3c(cnc4ncnn43)c2=O)c(Cl)c1,6.5,10.8
O=C(Cc1ccsc1)OCC(=O)C12CC3CC(CC(C3)C1)C2,1.0,1.8
CCOC(=O)c1c(NC(=O)c2cccs2)c(-c2ccc(OC)c(OC)c2)cn1Cc1ccccc1,7.8,6.6
Oc1oc(-c2ccc(Cl)cc2)nc1C=Nc1ccccc1Br,-3.9,-8.9

2 compounds picked at random from the list so far:
Compound,NPYLR7 agonist,NPYLR7 agonist max-min
O=c1nc2c3ccccc3ncn2[nH]1,3.5,3.6
Cc1ccccc1-c1cc2nc(NCc3ccccc3)n(C)c(=O)c2s1,5.8,0.7

Later entries.
Compound,NPYLR7 agonist,NPYLR7 agonist max-min
CN(C)c1ccc(C(=O)NCCc2ccccc2)cn1,1.7,1.1
O=C(CC1CSc2nc3c(cnn3-c3ccccc3)c(=O)n21)Nc1cccnc1 (stereo not drawn),1.3,-0.1
O=c1c2ccccc2cnn1CN1CCN(Cc2ccc(Cl)cc2)CC1,-2.2,-3.1
COc1ccc(Cn2cccc2C2=NCCO2)cc1,6.0,-0.6
COc1ccc(S(=O)(=O)Nc2cccc(-c3ccc(N4CCCCC4)nn3)c2)cc1C,2.5,3.3

Screening data: PubChem BioAssay, Fisher Drug Discovery Resource Center
